Compound activity (PubChem)
Mtb growth – M. tuberculosis H37Rv growth inhibitors, H37Rv strain (AID 1626); M. tuberculosis H37Rv growth inhibition; higher % means a stronger effect; one-dose inhibition, % at 10 µM; IC50 in µM for titrated hits; 220,000 tested, 0.95% active;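 active = confirmed in a dose series; inconclusive = inhibition above 80% but not taken into the dose series; inactive = below 80% or under 30% at every dose of the series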;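 note: bacteria incubated seven days before Alamar blue readout; 0% = bacteria only wells and 100% = bacteria with antibiotic wells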
YopH PTP inh – YopH (Yersinia) phosphatase inhibition; fluorescence Ex485/Em525; inhibition, %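 (about 10 µM by stock and volumes)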; 140,000 tested, 0.16% active; AID 898;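 active = inhibition of 50% or more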;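 note: controls were vehicle for no effect and minimum signal wells for full effect; inactives centre near -20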
Mtb bLac sens – beta-lactam sensitization of Mtb H37Rv | M. tuberculosis H37Rv growth with meropenem, percent inhibition; hits of this screen are not shown here | inhibition, % at 25 µM | 330,000 tested, 0.27% active;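 active = about 74% or more and at least 40 points above the plate without the antibiotic, then above 30% in a dose series; inconclusive = first-round hits that could not be retested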;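 note: growth measured after seven days incubation then overnight dye step; 0% = bacteria only wells and 100% = bacteria with antibiotic; twin plates without the antibiotic show which effects depend on it; some results filed as inactive read as strong as hits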
RecA splice inh – Mtb RecA intein splicing inhibition | P9WHJ3 | cell-free RecA intein splicing, fluorescence | inhibition, %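 (about 9 µM by stock and volumes)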 | 290,000 tested, 0.75% active | AID 2221; in the data active = inhibition above about 30%; inconclusive = no clear call, values can overlap the other calls;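 note: 0% = vehicle wells and 100% = reference inhibitor control wells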
Target sequence (P9WHJ3 whole entry, looked up, canonical isoform): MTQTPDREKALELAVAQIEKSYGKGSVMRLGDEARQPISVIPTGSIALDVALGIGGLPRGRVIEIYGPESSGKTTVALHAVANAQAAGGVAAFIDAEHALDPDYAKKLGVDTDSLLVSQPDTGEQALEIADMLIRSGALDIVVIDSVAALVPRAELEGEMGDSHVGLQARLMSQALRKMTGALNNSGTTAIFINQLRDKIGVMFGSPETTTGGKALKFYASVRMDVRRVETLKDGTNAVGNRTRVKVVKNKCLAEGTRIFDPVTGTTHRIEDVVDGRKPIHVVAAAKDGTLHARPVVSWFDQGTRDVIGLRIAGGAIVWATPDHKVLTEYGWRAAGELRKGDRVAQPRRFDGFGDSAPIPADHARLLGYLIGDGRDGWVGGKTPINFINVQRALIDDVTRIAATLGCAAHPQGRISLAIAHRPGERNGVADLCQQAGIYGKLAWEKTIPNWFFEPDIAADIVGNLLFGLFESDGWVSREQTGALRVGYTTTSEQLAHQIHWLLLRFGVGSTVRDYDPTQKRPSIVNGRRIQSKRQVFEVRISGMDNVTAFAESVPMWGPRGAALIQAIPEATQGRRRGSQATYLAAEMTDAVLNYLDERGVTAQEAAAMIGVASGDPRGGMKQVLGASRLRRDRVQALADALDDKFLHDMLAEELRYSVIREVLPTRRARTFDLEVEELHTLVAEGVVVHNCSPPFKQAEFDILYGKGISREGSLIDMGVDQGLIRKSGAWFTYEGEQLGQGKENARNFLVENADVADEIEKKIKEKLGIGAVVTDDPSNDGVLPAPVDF
Arbovirus anti – antivirals against arbovirus infection | arbovirus infection cell-based antiviral screen | inhibition, % at 10 µM | 200,000 tested, 0.37% active | AID 1251;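 active = inhibition from about 30%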;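 note: bluetongue infection of BSR cells; cell survival read as ATP light after 72 h; 0% = infected wells without compound and 100% = uninfected wells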
Arbovirus anti repeat – also measured in Arbovirus anti; calls as there; inhibition, %; measured here: 10K subset replicate screen; many hits read low in the repeat;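 first of two repeat runs on a subset; 0% = infected and 100% = uninfected wells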
Active calls of the source: *; ? = inconclusive; . = no result given; & = joins results of further samples. An excerpt; rates above refer to the full screens.

SMILES	Mtb growth	YopH PTP inh	Mtb bLac sens	RecA splice inh	Arbovirus anti	others
CCN(CC)S(=O)(=O)c1ccc(C(=O)NCC(c2cccs2)N2CCOCC2)cc1 (centres undefined)	-3.1%	4.7	-2.9	-1.2	-1.8
Nc1ccc(S(=O)(=O)Nc2ccnn2-c2ccccc2)cc1	20.6%	.	-4.3	3.0	.
Cc1nn(CCC(=O)NNC(=S)Nc2ccc(F)cc2)c(C)c1[N+](=O)[O-]	-3.1%	-21.3	-0.6	-0.6	-0.2
Cc1ccc(-c2cc(C(=O)N/N=C\c3cnn(C)c3C)c3ccccc3n2)cc1C	-1.1%	-10.9	58.2	-1.3	-15.7
CCN(CC)CCn1c2c(c(SCC(=O)Nc3nc(C)cs3)nc1=O)CCCC2	.	.	2.5	1.6	.
O=S(=O)(c1cccc2cccnc12)N1CCN(c2ccc(F)cc2)CC1	8.1%	.	4.3	0.1	2.5
O=C(NCC1CCCCC1)c1cc2ccccc2cc1O	.	.	-19.1	-2.9	.
NS(=O)(=O)c1ccc(NCCCn2ccnc2)c([N+](=O)[O-])c1	.	.	0.0	1.3	.
Fc1ccc(-c2nnc(-c3ccc(Cl)cc3Cl)o2)cc1	7.8%	1.4	13.2	-0.5	-9.8	Arbovirus anti repeat=-11.2
CC(C)N1C(=O)NC(=O)C2(Cc3cc([N+](=O)[O-])ccc3N(C)C2c2ccccc2)C1=O (centres undefined)	17.8µM*	-7.3	99.3	1.3	-11.1
CCc1c(C)nc(SCCOc2ccc(OC)cc2)[nH]c1=O	-1.2%	-58.0	5.9	1.2	0.8	Arbovirus anti repeat=0.0
COC(=O)[C@H]1[C@H]2C[C@H]3c4[nH]c5ccccc5c4CCN3C[C@@H]2CC[C@@H]1O	.	.	5.1&3.1	-6.9&0.6	.
CN1CCN(c2ccc(NC(=O)c3ccc4c(c3)OCO4)cc2)CC1	-2.1%	-34.3	-0.3	-0.6	-20.8
CCCN1CCN(CCCNC(=O)CN2C(=O)c3cccnc3Oc3ccc(C)cc32)CC1	.	.	?	-7.9	.
Cc1cc(S(=O)(=O)NCCC2=CCCCC2)ccc1Br	.	.	-13.8	4.4	.
Cn1c(=O)c2c(nc(NCCO)n2C)n(C)c1=O	13.9%	-80.8	6.8	-0.3	1.0
Cn1nccc1C(=O)NC1CCCc2c1cnn2-c1ccc(C(C)(C)C)cc1 (centres undefined)	.	.	33.7	4.0	.
O=C(NNC(=S)Nc1ccccc1)c1cc(-c2cccnc2)nc2ccccc12	4.2%	.	15.9	-4.8	-13.3
COc1ccc(Cn2c(C)c(C)c(C#N)c2NC(=O)Nc2ccccc2)cc1	.	-11.7	-2.4	1.0	7.1
FC(F)c1nnc2ccc(Cl)nn12	?	.	100.1	.	0.1
O=C(Nc1cccc(C(=O)O)c1)/C(=C\c1ccco1)NC(=O)c1ccccc1Cl	.	.	-3.4	5.2	.
CC(=O)OC1CCC2(C)C(=CCC3C2CCC2(C)C3CC3OC4(CCC(C)CN4)C(C)C32)C1 (centres undefined)	-1.7%	.	.	-1.1	.
Cc1ccc(NC(=O)C2CCCN2C(=O)c2cccs2)c(C)c1 (centres undefined)	.	.	-3.3	0.9	.
CC(=O)c1cnn(-c2cc(Oc3ccccc3C)ncn2)c1C	18.5%	-3.2	15.4	-0.4	1.8
CCOC(=O)CC1CCCCN1Cc1cn(C)nc1-c1ccc2c(c1)OCCO2 (centres undefined)	-7.6%	.	-0.4	2.1	-2.5
Cc1ccc(OC(=O)CCN2C(=O)c3ccccc3C2=O)cc1C	1.8%	.	92.4	-0.3	0.7
Cc1oc(-c2ccccc2F)nc1CS(=O)(=O)CC(=O)N1CCN(Cc2ccccc2)CC1	-1.2%	-38.2	-2.0	0.5	-4.4
CC1CC(C)(C)NC(=S)N1CCCC(=O)N1CCN(c2ccccc2F)CC1 (centres undefined)	-4.6%	-22.1	-1.1	1.7	3.0
CCN(c1ccccc1C(=O)O)S(=O)(=O)c1cccc2nsnc12	.	.	-0.6	0.3	.
CCOC(=O)c1c(C)[nH]c(C(=O)OCC(=O)NC2CCS(=O)(=O)C2)c1C (centres undefined)	-14.5%	-37.8	-8.1	0.4	2.0
COC(=O)c1sc2ccccc2c1-n1cccc1C(=O)C(=O)Nc1ccc(OC)cc1	-4.4%	-32.7	-1.3	7.0	-7.1
COc1ccc(-c2nnc(SCc3cccc(C#N)c3)o2)cc1	9.7%	-30.5	12.9	2.4	-0.9
CCOc1ccc(S(=O)(=O)N2CCOCC2)cc1NS(=O)(=O)c1ccc(OC)c([N+](=O)[O-])c1	.	.	-12.3	-8.6	.
O=C(ON=C1CCN(S(=O)(=O)c2ccccc2)CC1)c1ccc(Cl)cc1	-5.3%	-30.9	-1.0	2.0	6.4
CCOC(=O)N1CCN(S(=O)(=O)CCNC(=O)c2cccc(OC)c2)CC1	.	.	-2.1	-0.3	.
Cc1ccc(S(=O)(=O)N/N=C/c2cccc3c2OCCO3)cc1	7.0%	-6.0	1.4	-6.0	3.1

Grouped by structure: the compounds so far containing a cyano group
SMILES	Mtb growth	YopH PTP inh	Mtb bLac sens	RecA splice inh	Arbovirus anti	others
COc1ccc(Cn2c(C)c(C)c(C#N)c2NC(=O)Nc2ccccc2)cc1	.	-11.7	-2.4	1.0	7.1
COc1ccc(-c2nnc(SCc3cccc(C#N)c3)o2)cc1	9.7%	-30.5	12.9	2.4	-0.9

Going on with the list:
SMILES	Mtb growth	YopH PTP inh	Mtb bLac sens	RecA splice inh	Arbovirus anti	others
CN1CCN(CC(=O)Nc2ccccc2Sc2ccccc2)CC1	-2.9%	.	-6.2	3.1	-3.0
CCNC(=S)N1CCN(c2ccc([N+](=O)[O-])cc2)CC1	4.6%	-6.3	-1.9	-1.4	0.1
Cc1ccc(C(=O)NCC(=O)OCC(=O)c2ccc3c(c2)NC(=O)CO3)cc1C	-3.0%	.	0.0	0.1	-0.5
CC1C(=O)Nc2ccccc2N1C(=O)c1ccc(F)cc1 (centres undefined)	.	.	-12.1	-0.6	.
O=[N+]([O-])c1ccc(N2CCN(c3nc(-c4ccc(Cl)cc4)cs3)CC2)cc1	1.8%	2.9	2.2	1.5	-10.6
COc1ccc(SC[C@H](Cc2ccccc2)N2CCN(C)CCC2=O)cc1	-2.7%	.	-17.0	1.5	.
CCOc1ccc(OCCSc2nc3ccccc3[nH]2)cc1	-4.1%	-4.3	7.5	0.3	13.9
COc1ccc(OC)c(S(=O)(=O)n2nc(-c3ccccc3)cc2N)c1	2.8%	-45.1	-2.1	0.1	6.6	Arbovirus anti repeat=1.2
CCCCN(C)C(=S)Nc1ccc2nc3n(c(=O)c2c1)CCCCC3	0.7%	.	1.0	-0.7	4.3
COc1ccccc1NC(=O)NC1CCS(=O)(=O)C1 (centres undefined)	.	.	-16.8	-1.9	.
COCCCNC(=O)c1cccc(S(=O)(=O)N2CC3(C)CC2CC(C)(C)C3)c1 (centres undefined)	.	.	-2.7	0.8	.
O=C(C1=C[C@@H](C2CCCCC2)C[C@@H](OCCCCO)O1)N1CCN(Cc2ccccc2)CC1	5.7%	.	-9.6	1.7	-6.9

By substructure, the compounds so far containing a thiophene ring, fused or not
SMILES	Mtb growth	YopH PTP inh	Mtb bLac sens	RecA splice inh	Arbovirus anti	others
CCN(CC)S(=O)(=O)c1ccc(C(=O)NCC(c2cccs2)N2CCOCC2)cc1 (centres undefined)	-3.1%	4.7	-2.9	-1.2	-1.8
Cc1ccc(NC(=O)C2CCCN2C(=O)c2cccs2)c(C)c1 (centres undefined)	.	.	-3.3	0.9	.
COC(=O)c1sc2ccccc2c1-n1cccc1C(=O)C(=O)Nc1ccc(OC)cc1	-4.4%	-32.7	-1.3	7.0	-7.1

Next section.
SMILES	Mtb growth	YopH PTP inh	Mtb bLac sens	RecA splice inh	Arbovirus anti	others
COc1ccc(CCNC(=O)C2CCC(=O)N(C3CC3)C2)c(OC)c1 (centres undefined)	.	.	-4.9	2.0	.
O=C(O)CCCCCNC(=O)CCn1nnc2ccccc2c1=O	-4.2%	-21.6	-12.1	0.4	-4.0
Cn1c(=O)c2c(ncn2CC(=O)N/N=C/c2ccc(Br)s2)n(C)c1=O	-11.1%	-19.4	-7.1	1.3	-5.3
Cc1cc2nc3c(=O)n(CCc4ccccc4)c(=O)[nH]c3nc2cc1N	1.3%	.	-5.9	-349.9	.
COc1cc2c(cc1OC)CN(C(=O)CN(C)S(=O)(=O)c1ccc(NC(C)=O)cc1)CC2	.	.	2.0	-0.5	.
CCOC(=O)c1ccccc1NC(=O)c1ccc2c(=O)n3c(nc2c1)CCCCC3	15.9%	-16.0	-3.4	0.1	-7.5	Arbovirus anti repeat=-4.7
CC/C(=N\Nc1ccccc1)c1c(O)n(-c2ccc(OC)cc2)c(=O)[nH]c1=O	60.1%	.	91.0	-1.1	.
COc1ccc(C2NC(=O)CCC2[N+](=O)[O-])cc1 (centres undefined)	.	.	-7.8	-2.2	.
NS(=O)(=O)c1ccc(CNC(=O)CCC2CCCCC2)cc1	-1.1%	-13.0	-3.7	0.0	5.1
COCCC(=O)N1CCC(n2nccc2NC(=O)CCc2ccccc2)CC1	.	.	-18.2	-2.1	.
CCC(C)C(NC(=O)c1ccccc1NC(=O)c1ccco1)C(=O)NC1CCCCC1 (centres undefined)	-6.8%	-8.4	-7.3	-4.7	0.7
COCCn1c(=S)[nH]c2cc(C(=O)NCC3CCCO3)ccc2c1=O (centres undefined)	0.3%	-35.3	-5.3	0.4	-2.0
Cc1cccc(Nc2nnc(SCC(=O)NC3CCCc4ccccc43)s2)c1 (centres undefined)	17.0%	-12.1	0.2	-0.9	-5.9
CC(C)(C)c1nc(NC(=O)Nc2ccccc2)sc1Br	8.3%	.	98.1	2.0	-16.7
COc1cc(OC)c(/C=N/NC(=O)COc2cccc3cccnc23)c(OC)c1	-2.5%	.	-2.3	-0.9	.
COCCNC(=O)c1cn(C)c2ccc(S(=O)(=O)N(C)C3CCCCC3)cc2c1=O	-12.0%	.	-10.6	.	-2.0
O=C(Nc1cccc(Oc2c(F)c(F)c(F)c(F)c2F)c1)N1C[C@@H]2C[C@@H](C1)c1cccc(=O)n1C2	-5.4%	-3.0	-6.9	3.6&4.4	-2.7
O=C(c1cc(F)ccc1F)C1CCCN(Cc2cccn2-c2ccccn2)C1 (centres undefined)	4.5%	.	-0.9	0.8	.
CC(=O)Nc1sc2c(c1C(N)=O)CCC2	2.0%	30.2	-2.5	-3.1	-2.3
C=CCn1c(Cc2ccc(OC)cc2)nnc1SCc1nc2ccccc2c(=O)[nH]1	-14.5%	-52.0	2.2	-7.3	9.0
COc1ccccc1Nc1c([N+](=O)[O-])cncc1[N+](=O)[O-]	1.1%	.	65.9	8.7	3.3
COc1ccccc1Nc1nn2c(=O)c3ccc(C(=O)N4CCC(C)CC4)cc3nc2s1	.	.	88.5	-1.0	.
CCn1c(=O)n(CC)c2cc(S(=O)(=O)N3CCCCC3)c(C)cc21	-2.5%	1.4	-6.3	-1.4	-16.6
Cc1cc(C(=O)NC2CC2)c2ccccc2n1	3.1%	.	-1.6	0.4	13.5
CC(C)C(CCN1C(=O)CCC1=O)C1CCOC(C)(C)C1 (centres undefined)	1.1%	-20.9	-1.6	-2.3	16.2
CCCC(=O)C1CCN(Cc2ccccc2)CC1	-5.8%	22.6	3.7	-1.4	0.7
CC(=O)NN1C(=O)c2ccccc2NC1c1ccccc1O (centres undefined)	.	.	14.4	0.0	.
Cc1ccc(Nc2ncnc3c2nnn3Cc2ccccc2)cc1	13.9%	.	2.9	-0.2	.
O=C(CCNC(=O)c1ccccc1Cl)Nc1cc(S(=O)(=O)N2CCOCC2)ccc1N1CCOCC1	3.2%	.	-0.4	3.1	.
NC(=O)c1ccccc1NS(=O)(=O)Cc1ccc(Cl)cc1	-0.4%	-103.0	0.6	-0.5	5.7
CCOC1CCc2c(C)nc(N)nc2S1 (centres undefined)	7.5%	.	6.1	0.0	.
CCc1c(C)nc2ncnn2c1Nc1ccc(C(C)=O)cc1	-3.7%	1.2	0.9	-0.2	-3.6
CCN(CC)S(=O)(=O)c1ccc(N2C(=O)CC2(/C=C/c2ccccc2)C(=O)NC2CCCC2)cc1 (centres undefined)	-0.8%	-21.8	-2.0	-4.3	4.8
Nc1nonc1OCCc1ccccc1	-1.6%	-14.7	3.2	-2.1	7.7
O=C(NC1CC1)C1=C[C@@H](c2ccccc2)C[C@@H](OCc2ccc(CO)cc2)O1	-10.6%	.	-5.5	-2.0	.
CCC1(C)Cc2c(sc3nc(SC)nc(NCCN(C)C)c23)CO1 (centres undefined)	0.3%	5.7	-4.2	2.3	-1.1
COc1ccccc1CN1CCN(S(=O)(=O)c2ccccc2)CC1	-2.9%	-11.7	0.9	-2.2	3.4
CCn1c(SCC(=O)NCc2ccco2)nc2c1c(=O)n(C)c(=O)n2C	-2.5%	-26.3	-9.7	0.7	3.5
Cc1nc2nc(-c3ccc(Cl)cc3)[nH]n2c(=O)c1Cc1ccccc1	-0.9%	-8.8	19.5	1.1	-7.6
